VACV mCherry inh: qHTS for Stage-Specific Inhibitors of Vaccinia Orthopoxvirus: mCherry Reporter Primary qHTS | 0.63% of 310,000 active | Potency, µM (doses to about 36.5 µM), inactives show at the top dose activity change, negative = inhibition, actives largely listed as inhibitors | Vaccinia virus mCherry reporter infection, fluorescence; about a quarter of the inactives have no number; active = well fitted inhibition curve with a large enough effect; inconclusive = small, poorly fitted or top-dose-only effect; inactive = no such curve, though single readings can be large or run the other way; tested in A549 cells; further: nearly all actives have a fitted effect of over 35% in size; inactives centre near -10
Vaccinia Venus: qHTS for Stage-Specific Inhibitors of Vaccinia Orthopoxvirus: Venus Reporter Primary qHTS | Vaccinia virus Venus reporter expression, fluorescence | Potency, µM (doses to about 36.5 µM), without a hit: at the highest dose activity change, negative = inhibition, usual class: inhibitors | 0.46% of 330,000 active | AID 720580, 2013; active means well fitted inhibition curve with a large enough effect; inconclusive means small, poorly fitted or top-dose-only effect; inactive means no such curve, though single readings can be large or run the other way; tested in A549 cells; further: nearly all actives have a fitted effect of over 30% in size; inactives centre near -10
The depositor's hits bear a star; i = inactive; ? = inconclusive; / = not tested or not shown; & = joins results of further samples; [ ] = dose if it differs, or a comment. On the % scale 0 is the no-effect control and ±100 the full control effect; potency means the concentration at half of the fitted maximal effect.

Sequence of screens: Vaccinia Venus, VACV mCherry inh
> CCCN(CCC)CCCNC(=O)c1ccc2c(Cl)c3c(nc2c1)CCC3
 : -26%, ?
> COc1ccc(CC(=O)N2CCN=C2SC)cc1
 : -9%, i
> Cc1cccc(NC(=O)c2sc3nc4n(c(=O)c3c2C)N=C(c2ccc(F)cc2)CS4)c1C
 : -17%, -3%
> N#Cc1ccc(COC(=O)c2cnc(Cl)c(Cl)c2)cc1
 : -4%, -7%
> N#CCCn1cnc2c(=S)nc[nH]c21
 : 29%, -1%
> O=C(COC(=O)c1cnccn1)Nc1ccccc1-c1ccccc1
 : -17%, i
> O=S(=O)(c1ccc(Cl)cc1)N1CCCN(c2ccc(C(F)(F)F)cn2)CC1
 : -14%, -18%
> Cc1cc(C)cc(C(=O)NC(CC(N)=O)c2ccc(N3CCC(Cc4ccccc4)CC3)c([N+](=O)[O-])c2)c1 (configuration not stated)
 : -10%, -6%
> Cc1cccc(C)c1NC(=O)C1(C)CN(S(C)(=O)=O)CC(=O)N1CCCn1ccnc1 (configuration not stated)
 : -13%, -11%
> CC(C)Oc1ccc(CCc2n[nH]c(=S)n2Cc2ccccc2)cc1
 : ?, ?
> COc1ccc(C(=O)Nc2ccc3c(c2)nc(CCNC(=O)c2ccco2)n3C)cc1
 : -2%, ?
> O=C(Nc1ccccc1)N1CCN(c2ncccn2)CC1
 : -5%, -9%
> NC(=O)C1=C[C@H](c2ccc(C(F)(F)F)cc2)C[C@H](OCCCCO)O1
 : -5%, -2%
> Cc1ccc(N(C)C(=O)CC(C)S(=O)(=O)c2ccc3c(c2)NC(=O)CO3)cc1 (configuration not stated)
 : -9%&-8%, -11%&-7%
> Cc1nc2ccccc2n1CC(=O)OCC(=O)Nc1ccc2c(c1)OCCO2
 : -8%, -12%
> O=S(=O)(NCCCN1CCOCC1)c1ccc(Cl)s1
 : 0%, -13%
> CCOC(=O)N1CCN(C(=O)C(=O)N/N=C/c2ccc(OC)cc2OC)CC1
 : -17%, -19%
> O=c1c([N+](=O)[O-])cccn1Cc1ccc(F)cc1Cl
 : ?, ?
> CC(C)c1ccc(NC(=O)CSC2=Nc3ccccc3C3=NC(CC(=O)NCc4ccco4)C(=O)N23)cc1 (configuration not stated)
 : -9%, -8%
> COc1ccc(-c2cn3c(C)c(C(=O)NC(C)(C)C)sc3n2)cc1
 : -29%, i

An excerpt from above in order of number of heavy atoms, highest first.
Sequence of screens: Vaccinia Venus, VACV mCherry inh
> Cc1cc(C)cc(C(=O)NC(CC(N)=O)c2ccc(N3CCC(Cc4ccccc4)CC3)c([N+](=O)[O-])c2)c1 (configuration not stated)
 : -10%, -6%
> Cc1cccc(NC(=O)c2sc3nc4n(c(=O)c3c2C)N=C(c2ccc(F)cc2)CS4)c1C
 : -17%, -3%
> Cc1nc2ccccc2n1CC(=O)OCC(=O)Nc1ccc2c(c1)OCCO2
 : -8%, -12%
> NC(=O)C1=C[C@H](c2ccc(C(F)(F)F)cc2)C[C@H](OCCCCO)O1
 : -5%, -2%
> COc1ccc(-c2cn3c(C)c(C(=O)NC(C)(C)C)sc3n2)cc1
 : -29%, i
> O=C(Nc1ccccc1)N1CCN(c2ncccn2)CC1
 : -5%, -9%

Continued:
Sequence of screens: Vaccinia Venus, VACV mCherry inh
> O=C(c1cc(S(=O)(=O)N2CCC3(CC2)OCCO3)ccc1F)N1CCC2(CC1)OCCO2
 : -6%, -21%
> CCN(CC(=O)Nc1c(F)cccc1F)C(=O)C1COc2ccccc2O1 (configuration not stated)
 : -9%, -4%
> CC(C)(C)C(=O)CNS(=O)(=O)c1ccc(S(=O)(=O)NC2CCCC2)cc1
 : -5%, -19%
> CC(C)(C)c1ccccc1NC(=O)CN1C(=O)NC(Cc2ccccc2)C1=O (configuration not stated)
 : -11%, -24%
> COc1cccc(C2CC(c3ccccc3)n3ncnc3N2)c1 (configuration not stated)
 : -2%, -9%
> O=C(CCC1CCCC1)Nc1cccc(Cc2ccncc2)c1
 : -4%, -9%
> CCOC(=O)c1ccc(NC(=O)Nc2c(C)n(C)n(-c3ccccc3)c2=O)cc1
 : -10%, -18%
> Clc1ccc(Cn2ncc3c(N4CCCC4)ncnc32)cc1
 : -23%, /
> CCOC(=O)c1cc(S(=O)(=O)NCc2ccc(C)cc2)[nH]n1
 : 4%, -7%
> Cc1nc(CCNC(=O)C2CCC(=O)N(Cc3ccc(Cl)cc3)C2)sc1C (configuration not stated)
 : -14%, i
> O=c1ccn(C2OC(COP(=O)(O)OP(=O)(O)OP(=O)(O)O)C(O)C2O)c(=O)[nH]1 (configuration not stated)
 : 0%, i
> COc1ccccc1OCC(=O)NNC(=O)c1ccc(F)c(S(=O)(=O)N2CCOCC2)c1
 : -17%, -10%
> COC(=O)c1ccccc1NC(=O)C1CCN(C(=O)Cc2ccccc2)CC1
 : -5%, -18%
> Cn1cnnc1Sc1ccc(CN2CCOc3ccc(C4=CCCCC4)cc3C2)o1
 : -15%, -18%
> CC(=O)Nc1ccc(S(=O)(=O)NC(C)C(=O)OCC(=O)NC2CCCC2)cc1 (configuration not stated)
 : 8%, -7%
> O=S1(=O)CCN(CCCCc2ccccc2)CC1
 : -8%, -4%
> COc1cc(CN2C[C@@H](CO)O[C@@H](n3cnc4c(N5CCCC5)ncnc43)C2)cc(OC)c1OC
 : 4%, -1%
> COC(=O)C1CCN(Cc2ccc3c(c2)CN(C(=O)c2ncc(C)[nH]2)CCO3)CC1
 : 6%, -8%
> Clc1ccc2nc(-c3cccc(Br)c3)c(Cc3ccsc3)n2c1
 : -12%, 4%
> COc1cc2c(cc1OC)/C(=C/C(C)=O)OC2
 : -10%, -4%

Further records follow.
Sequence of screens: Vaccinia Venus, VACV mCherry inh
> CCCCNC(=O)c1ccc2nc(CC)c(N(CC)CCN(C)C)n2c1
 : 9%, 7%
> C/C(=N/NC(=O)CN1CCN(S(=O)(=O)c2ccc(Br)cc2)CC1)c1ccco1
 : -18%, -25%
> N#CC1CC(c2ccc([N+](=O)[O-])cc2)=NN1c1ccc([N+](=O)[O-])cc1 (configuration not stated)
 : 0%, -22%
> O=C(NCc1ccc2c(c1)OCO2)C(=O)NCC1OCCN1S(=O)(=O)c1ccc(Br)cc1 (configuration not stated)
 : -21%, -9%
> CC(C)c1cc(C(=O)NC2CCCc3c2cnn3-c2ccccc2F)no1 (configuration not stated)
 : 8%[7.34 µM], -7%[7.34 µM]
> CCCCn1c(N)c(N(CCOC)C(=O)c2oc3ccc(OC)cc3c2C)c(=O)[nH]c1=O
 : -19%, i
> O=CN1N=C(c2ccccc2)CC1c1ccccc1[N+](=O)[O-] (configuration not stated)
 : 5%, -19%
> COc1cccc(S(=O)(=O)Nc2ccc(C(=O)N3CCCCCC3)cc2)c1
 : -11%, i
> O=C(NCCN1CCCCC1)/C(=C/c1ccco1)NC(=O)c1ccccc1
 : -4%, -15%
> C=CCC1[C@H](C)[C@H]2[C@@H]3CC[C@@H](C3)[C@H]2CN1S(=O)(=O)c1ccc(C)cc1 (some centres not stated)
 : 0%, -5%
> CCCCN(C)CCNC(=O)c1cc2c(=O)[nH]c3ccccc3c2n1C
 : -7%, -25%
> CCC(Sc1nc2ccc(C)cc2[nH]1)C(=O)O (configuration not stated)
 : -1%, -12%
> CC1CCN(C(=O)Cn2c(=O)n(Cc3ccc4c(c3)OCO4)c(=O)c3ccccc32)CC1
 : -28%, /
> C=CCOc1ccnc(-c2ccccc2)n1
 : 0%, -15%
> O=C(NCCc1ccc(Cl)cc1)c1ccc(CS(=O)(=O)c2ccc(Cl)cc2)o1
 : -14%, -18%
> CCOC(=O)c1sc(NC(=O)Nc2ccc(F)cc2)nc1C
 : -28%, ?
> O=C(CN1CCCC1c1ccc2c(c1)OCCO2)NC(=O)Nc1ccccc1F (configuration not stated)
 : -8%, -16%
> CCNc1c(NC(=O)C2CCC(C)CC2)c(=O)oc2ccccc12 (configuration not stated)
 : -10%, 2%
> Cc1ccccc1C(=O)NC(=S)Nc1cccc(NC(=O)C(C)C)c1
 : -8%, i
> CN(Cc1cnn(C)c1)Cc1nc(-c2ccc(Cl)cc2)no1
 : -9%, -25%

More entries follow.
Sequence of screens: Vaccinia Venus, VACV mCherry inh
> O=C(NC1CCCC1)C(c1ccccc1)n1c(CSCCOc2ccccc2)nc2ccccc21 (configuration not stated)
 : -1%, -14%
> CCOC(=O)[C@H]1[C@H]2COc3cc(OC)ccc3[C@@H]2N2C(=O)c3cc(OC)ccc3NC(=O)[C@@]12C
 : -12%, 11%
> COC(=O)c1cc2c(ccn2-c2ccc(F)cc2)n1Cc1ccc(C#N)cc1
 : 2%, -8%
> CCOC(=O)c1ccc(NC(=O)CC2C(=O)N(c3ccccc3)C(=O)N2Cc2cccs2)cc1 (configuration not stated)
 : 8%, 2%
> Cc1cc(C)c2nc(NNC(=O)c3cc(-c4cccs4)nc4ccccc34)sc2c1
 : ?, ?
> COc1cc(C2NC(=O)NC(C)=C2[N+](=O)[O-])cc(OC)c1OC (configuration not stated)
 : -11%, -10%
> Cc1cc(C(=O)N2CCN(c3ccccc3Cl)CC2)c(C)o1
 : -13%, -28%
> CCOc1ccccc1NC(=S)NCC1CCCO1 (configuration not stated)
 : 2%, -2%
> O=C1CC(C2CCCO2)C(=O)N1c1ccc(Cl)c(Cl)c1 (configuration not stated)
 : -8%, -4%
> O=C(c1ccc(S(=O)(=O)N2CCC(c3nc4ccccc4s3)CC2)cc1)N1CCCCC1
 : -13%, -10%
> COc1ccccc1C(=O)O[C@H]1[C@H](Cc2ccccc2)NS(=O)(=O)[C@H]2C[C@@H]3C=C[C@]12O3
 : -12%&-8%, i
> COc1ccc(CCNC(=O)c2sc3nc4n(c(=O)c3c2C)CCCC4)cc1OC
 : -15%, -6%
> Fc1cc(Br)ccc1NC(=S)NCCc1ccccc1
 : ?, -6%
> COc1cccc(-c2cc3nc(NCc4cccnc4)n(C)c(=O)c3s2)c1
 : -12%, i
> CC(=O)Nc1cc(NC(C)=O)cc(C(=O)OCC(=O)Nc2ccc(S(=O)(=O)NC3=NCCCCC3)cc2)c1
 : -4%, i
> O=P(O)(O)c1ccccc1OCCOCCOCCOCCOc1ccccc1P(=O)(O)O
 : -11%, i
> COC(=O)c1c(-c2ccc(Cl)cc2)noc1N1CCN(c2ccc(C)cc2C)CC1
 : -12%, -4%
> CCOc1ccc(S(=O)(=O)N2CCN(C(=O)c3ccco3)CC2)cc1
 : -12%, i
> O=C(/C=C/c1ccc(Cl)c(Cl)c1)N1CCOCC1
 : -8%, 2%
> COC(=O)c1cc(CNC(=O)c2ccc3ccccc3n2)cc(NC(=O)c2cccc(OC)c2)c1
 : 7%, -8%

New compounds follow
Sequence of screens: Vaccinia Venus, VACV mCherry inh
> COc1ccc(C(=O)CSC(=S)N2CCCCC2)cc1
 : -5%, 5%
> Oc1ccc(C[C@@H](CN2CCC[C@@H]2CN2C(=S)NC[C@@H]2Cc2ccccc2)N2C[C@H](Cc3ccccc3)N(CCc3ccccc3)C2=S)cc1
 : -20%, 2%
> COc1cc(C(CCN2CCN(c3ccccc3)CC2)c2c(OC)cc(OC)c3c(C)cc(=O)oc23)cc(OC)c1OC (configuration not stated)
 : -28%, -8%
> Cc1ccc(OCCCn2c(CO)nc3ccccc32)cc1
 : -22%, /
> O=C(O)CC(C(=O)OCC1CCCO1)N1CCOCC1 (configuration not stated)
 : -11%, -20%
> CCCNC(=O)c1ccc2c(=O)c(O)c(-c3ccc(F)cc3)[nH]c2c1
 : ?, ?
> CCCCCCn1ccc(=N)cc1
 : ?, /
> COc1ccc(Cc2c(-c3ccc(F)cc3)nc3ccc(Cl)cn23)c(C)c1
 : -17%, 4%
> COc1ccc(C(=O)Nc2nc(CC(=O)NCCc3cccc(OC)c3)cs2)cc1
 : -13%, i
> O=C(COc1ccccc1Cl)Nc1nnc(S(=O)(=O)N2CCCC2)s1
 : -16%&-13%, -17%&-17%
> CCOC(=O)c1sc(C)c(C(=O)NCC(C)(C)CN(C)C)c1N
 : -11%, /
> CCN1C(=O)c2ccccc2Sc2ccc(C(=O)NCCCN3CCCCC3)cc21
 : -6%[7.34 µM], -12%[7.34 µM]
> COc1cccc(NS(=O)(=O)c2cn(C)c(=O)n(C)c2=O)c1
 : -9%, i
> CCC(=Nc1ccc2c(c1)CCC2)c1c(O)n(-c2ccc(OC)cc2)c(=O)[nH]c1=O
 : -21%, -30%
> CCOc1ccc(N2CC(c3nc4ccccc4n3CCOc3ccccc3OC)CC2=O)cc1 (configuration not stated)
 : -14%, -15%
> C/C(=N/NC(=O)CNC(=O)CCc1ccccc1)c1ccc(Cl)cc1
 : -29%, ?
> N#CCCCCN1CCCC1
 : 2%, i
> CCOC(=O)CP(=O)(c1ccccc1)c1ccccc1
 : -14%, /
> O=C(CCS(=O)(=O)c1ccccc1Cl)NC1CCCCCC1
 : -8%, i
> O=S(=O)(c1ccc(F)cc1)N1CCN(Cc2ccccn2)CC1
 : -17%, i

Already shown: three of the compounds above.
Sequence of screens: Vaccinia Venus, VACV mCherry inh
> CCOC(=O)CP(=O)(c1ccccc1)c1ccccc1
 : -14%, /
> O=C(CCS(=O)(=O)c1ccccc1Cl)NC1CCCCCC1
 : -8%, i
> O=S(=O)(c1ccc(F)cc1)N1CCN(Cc2ccccn2)CC1
 : -17%, i

The results go on:
Sequence of screens: Vaccinia Venus, VACV mCherry inh
> CC1CCN(C(=O)/C(=C\c2ccccc2)NC(=O)c2ccccc2)CC1
 : -10%, -6%
> COc1ccc(C(=S)N2CCOCC2)cc1OC(=O)c1ccccc1
 : 6%, -9%
> Cn1nnnc1SCC(=O)NCc1ccccc1
 : -10%, /
> O=C(NCCCN1CCOCC1)C(=O)N/N=C/c1ccccc1O
 : -14%, -10%
> CC(=O)Nc1ccccc1C(=O)OCc1cccc(F)c1
 : -9%, -12%
